Bioassay records from PubChem.
E coli growth – E. coli growth inhibition | Escherichia coli growth, OD600, 23 h; hits give low values | OD600 absorbance (concentration not given with the values) | 330,000 compounds, 0.21% hits;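 active means OD600 absorbance below the run mean of sample wells minus 3.6 SD, in any replicate, cut at about 0.56 in these data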;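 further: stock transfer was 300 nL into about 60 µL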
Beta2AR agonist – activates human beta-2 adrenergic receptor causing internalization; P07550; Am2.2-beta2AR cells, FAP receptor internalization, flow cytometry; reference of the scale not given here; response, % (test concentration not listed); 340,000 compounds, 0.43% hits; AID 504454;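 active means response above a set limit, near 3 SD of response in nonfluorescent compounds, cut at about 42% in these data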;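 further: stock transfer was 100 nL into about 11 µL; a reference agonist was the positive control; negative values mostly stem from fluorescent compounds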
Target sequence (P07550 whole entry, looked up): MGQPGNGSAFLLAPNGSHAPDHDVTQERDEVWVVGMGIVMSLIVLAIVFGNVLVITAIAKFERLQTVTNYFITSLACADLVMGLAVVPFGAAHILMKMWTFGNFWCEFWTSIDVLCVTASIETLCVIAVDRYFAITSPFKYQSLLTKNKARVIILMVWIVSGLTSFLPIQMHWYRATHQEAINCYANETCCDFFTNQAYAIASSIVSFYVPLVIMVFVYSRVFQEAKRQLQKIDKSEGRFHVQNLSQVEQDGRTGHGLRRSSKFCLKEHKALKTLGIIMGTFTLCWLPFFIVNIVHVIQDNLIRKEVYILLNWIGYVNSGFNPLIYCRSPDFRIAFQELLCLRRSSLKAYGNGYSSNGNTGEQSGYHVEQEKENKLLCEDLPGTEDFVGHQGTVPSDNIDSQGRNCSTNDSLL
FGF22 binding – FGF22 (human) thermal shift binding. calls only at 9.99 µM. 340,000 compounds, 1.5% hits. recombinant FGF22 thermal shift, SYPRO orange fluorescence; percent of sucrose octasulfate shift, DMSO zero;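 active means melting point raised past a set limit in the mean and every replicate; three in four hits are not shown here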
UCH37 DUB inh – blocks the human deubiquitinase UCH37; Q9Y5K5; purified proteasome/UCH37, Ub-AMC cleavage fluorescence; inhibition, % (concentration not given with the values); 330,000 compounds, 0.33% hits;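 active means mean of two replicates above 20%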;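 further: 0% = compound-free wells with enzyme and 100% = wells lacking proteasome; stock transfer was 100 nL into about 20 µL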
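Signal – fluorescence, ex 355 nm, em 460 nm · System – Proteasome-bound UCH37 · Input – 0.15 nM proteasome as dispensed · Timing – 30 min preincubation with enzyme, 25 min cleavage at room temperature · Read-out basis – percent inhibition of cleavage signal versus uninhibited and no-proteasome wells · Medium – Tris-HCl pH 7.4 with ATP-MgCl2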
Ecoli rRNA inh – inhibitors of bacterial rRNA selective over humanized ribosomes; E. coli WT GFP vs humanized-ribosome RFP mutants, fluorescence, 24 h; hits give low values; DMSO median 0, no signal -100; GFP signal change (wild-type ribosome), % (concentration not given with the values); 350,000 compounds, 1.6% hits;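 active means significant combined selectivity score with lowered wild-type GFP, culture density cut under 30%, mutant RFP and density less affected; inactive means any of these conditions unmet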; further: one replicate is shown; some compounds called inactive have numbers as strong as hits
HNF4A DNA FP – change in binding of human HNF4 alpha to DNA | HNF4a-FITC DNA binding, fluorescence polarization, 1 h | activity change, % at 10 µM | 360,000 compounds, 0.3% hits | AID 1224865; in the data active means activity change above about 30%, passing the limit was not always enough;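 further: controls were the assay level and a saturating level of protein; the project sought stronger binding though the title names inhibitors; some compounds called inactive have numbers as strong as hits; positive values seem to mean higher polarization but the record does not say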
Target sequence (P41235 whole entry, looked up): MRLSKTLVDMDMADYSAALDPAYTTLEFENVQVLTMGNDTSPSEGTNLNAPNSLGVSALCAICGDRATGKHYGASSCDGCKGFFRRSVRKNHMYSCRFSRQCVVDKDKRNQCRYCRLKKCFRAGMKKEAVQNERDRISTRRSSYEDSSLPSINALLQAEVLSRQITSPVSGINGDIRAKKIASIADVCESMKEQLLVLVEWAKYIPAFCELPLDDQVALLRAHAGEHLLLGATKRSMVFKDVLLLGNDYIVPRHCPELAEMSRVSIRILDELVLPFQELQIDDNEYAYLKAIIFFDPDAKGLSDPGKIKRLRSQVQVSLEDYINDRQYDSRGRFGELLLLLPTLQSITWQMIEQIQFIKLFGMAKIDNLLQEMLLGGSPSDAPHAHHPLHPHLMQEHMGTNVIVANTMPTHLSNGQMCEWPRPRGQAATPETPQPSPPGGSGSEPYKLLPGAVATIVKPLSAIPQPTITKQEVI
ALR inh – human ALR oxidase inhibition via reduced H2O2. P55789. purified ALR, DTT oxidation, H2O2 HRP-luminol luminescence. inhibition, % (concentration not given with the values). 290,000 compounds, 3.8% hits. AID 485317;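 active means mean and each replicate at 75% or more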;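 further: stock transfer was 7.5 nL into about 7.5 µL; 0% = neutral wells and 100% = wells with inactivated enzyme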
Target sequence (P55789 whole entry, looked up): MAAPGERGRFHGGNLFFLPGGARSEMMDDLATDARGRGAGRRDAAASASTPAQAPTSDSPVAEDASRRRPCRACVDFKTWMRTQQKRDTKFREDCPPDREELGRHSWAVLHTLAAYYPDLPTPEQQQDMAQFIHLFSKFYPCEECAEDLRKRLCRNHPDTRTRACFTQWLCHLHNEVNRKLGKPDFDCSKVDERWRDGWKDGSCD
Ecoli rRNA inh OD600 – further read-out of Ecoli rRNA inh, marked with its call; OD600 change, %; measured here: OD600 growth;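 optical density of the mix in the first replicate; 0 = DMSO median and -100 = no signal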
Ecoli rRNA inh RFP – further read-out of Ecoli rRNA inh, marked with its call; RFP signal change, %; measured here: RFP humanized mutant strains;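 first replicate; 0 = DMSO median and -100 = no signal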
Starred values were filed as active, the others as inactive; i = inactive; / = no result given; & = joins results of further samples. Not all compounds are listed; rates above refer to the full screens.

SMILES	E coli growth	Beta2AR agonist	FGF22 binding	UCH37 DUB inh	Ecoli rRNA inh	Ecoli rRNA inh OD600	Ecoli rRNA inh RFP	HNF4A DNA FP	ALR inh
COCCNC(=O)C(c1ccc(F)cc1)N(C(=O)CCC(=O)Nc1nccs1)c1cccc(C)c1 (stereo unspecified)	0.71	-4	i	-2.3	7	-1	1.2	0.2	/
Cc1ccc(S(=O)(=O)N2CCOCC2)cc1NC(=O)CNCc1ccccn1	0.66	0	i	0.6	5	-2	-9.2	-0.7	0
O=[N+]([O-])c1cc([N+](=O)[O-])c(Oc2cccnc2Br)cc1NN1CCCCC1	0.79	-3	i	-0.6	-2	-2	2.0	-5.4	60
O=C(O)CN(c1ccccc1[N+](=O)[O-])S(=O)(=O)c1ccccc1	0.73	6	i	2.2	16	6	-1.4	1.1	-3
CC(=O)NC1N=C(C)N(c2ccccc2)C1=O (stereo unspecified)	0.74	-1	/	7.0	/	/	/	0.6	/
Cc1ccc(-n2nc3c4c(cccc4c2=O)-c2ccccc2-3)cc1	0.75	0	/	-54	/	/	/	-6.6	-2
CCOc1ccc(NC2=NCCC(=O)N2Cc2cccs2)cc1	0.73	-2	/	3.6	/	/	/	-2.7	5
CCC(=O)OCC(=O)N=c1sccn1Cc1ccccc1Cl	0.7	-3	i	-2.7	-1	-5	0.2	4.1	-4
Cc1cccc(N2CCN(c3ccc(N4C(=O)CCCC4=O)cc3[N+](=O)[O-])CC2)c1C	0.77	3	i	4.0	15	12	-1.9	-0.1	/
CC(=O)Nc1ccc(NC(=O)COC(=O)c2ccc(C)s2)cc1	0.71	-7	/	-1.1	/	/	/	1.1	-5
CCN1C(=O)Cc2cc(S(=O)(=O)N3CCOCC3)ccc21	0.75	-3	/	3.1	/	/	/	1.5	13
COc1cccc(C2CC(c3cccs3)=NN2C(=O)CSC2=NN3CCCC(=O)N=C3S2)c1OC (stereo unspecified)	0.72	-6	i	1.6	-1	-12	9.9	-3.1	-37
CCOC(=O)c1oc2ccccc2c1COC(=O)CNC(=O)c1ccccc1	0.71	11	i	0.3	-5	-11	-0.6	-2.2	11
CC(C)(C)Cc1c(-c2cccc(Br)c2)nc2ccc(Cl)cn12	/	/	i	/	-4	8	12	19	/
Cc1ccccc1NC(=S)Nn1cnnc1	0.68	-8	i	1.2	9	17	0.9	0.2	7
CCOC(=O)Cc1csc(NC(=O)c2ccc(F)cc2)n1	0.67	6	i	2.8	3	0	3.2	-0.6	-6
C=CCc1ccc(OCC(O)COCC)c(OC)c1 (stereo unspecified)	0.77	4	/	1.3	/	/	/	2.6	-27
COc1cc(NC(=O)Nc2cccc(C(C)=O)c2)cc(OC)c1OC	0.66	3	/	4.5	/	/	/	-0.8	98*
CCN(CC)c1ncccc1C(=O)NCc1cccs1	0.69	7	/	1.8	/	/	/	3.4	-11
CC1=C(C(=O)Nc2ccccc2)C(c2ccncc2)C(C#N)=C(SCC(=O)NC(C)C)N1 (stereo unspecified)	0.73	0	/	1.5	/	/	/	0.5	/

ALR inh: entries above that show a hit.
canonical_smiles	Beta2AR agonist	FGF22 binding	UCH37 DUB inh	Ecoli rRNA inh	Ecoli rRNA inh OD600	Ecoli rRNA inh RFP	HNF4A DNA FP	ALR inh
COc1cc(NC(=O)Nc2cccc(C(C)=O)c2)cc(OC)c1OC	3	/	4.5	/	/	/	-0.8	98*

Additional structures follow:
SMILES	E coli growth	Beta2AR agonist	FGF22 binding	UCH37 DUB inh	Ecoli rRNA inh	Ecoli rRNA inh OD600	Ecoli rRNA inh RFP	HNF4A DNA FP	ALR inh
COc1ccc(CSc2nnnn2Cc2ccccc2)cc1OC	0.72	-7	/	2.2	/	/	/	-1.0	-6
COC(=O)c1ccc(C)c(NC(=O)CSc2nc3[nH]c(=O)cc(O)c3s2)c1	0.65	-4	i	1.9	32	26	7.5	2.0	2
CC(C)(C)NC(=O)C(c1ccncc1)N(C(=O)CNC(=O)c1ccco1)c1ccc(F)cc1 (stereo unspecified)	0.69	-1	i	0.7	5	14	0.6	1.0	0
C#CCNC(=O)C[C@@H]1C[C@@]2(C(=O)OC)CCCCC=C2N(Cc2ccco2)C1=O	/	/	i	/	16	15	4.5	5.1	/
Cc1ccc(S(=O)(=O)N2C(=O)CCC2C(=O)Nn2cnnc2)cc1 (stereo unspecified)	0.67	0	/	5.9	/	/	/	0.2	-9
COc1cccc(N(C(=O)Cn2nnc(-c3ccc(F)cc3)n2)C(C(=O)NCC2CCCO2)c2ccc(Cl)cc2)c1 (stereo unspecified)	0.69	4	i	-0.2	13	14	0.2	-0.4	/
CC(C)Cn1c(CCC(N)=O)nnc1SC(C)C(=O)Nc1ccc2c(c1)OCO2 (stereo unspecified)	0.66	-3	i	0.2	/	/	/	-1.5	-4
CC1CC(C)CN(C(=O)COC(=O)c2ccc3c(c2)C(=O)N(Cc2ccco2)C3=O)C1 (stereo unspecified)	0.67	-6	i	0.7	/	/	/	-1.4	-2
O=C1CSCN1c1ccc(Cl)cc1	0.7	-3	i	2.4	4	16	0.3	-0.7	-12
COc1cccc(CN2CCC(Oc3ccc(C(=O)NCc4ccccn4)cc3)CC2)c1	0.69	-9	i	-1.9	1	1	1.1	-0.7	-11
C/C(=N\NC(=O)c1ccc([N+](=O)[O-])cc1Cl)c1ccccc1	/	0	i	/	10	24	-3.2	0.3	-8
CC(C)(C)c1ccc(S(=O)(=O)NNC(=O)C2CCN(Cc3cccc(F)c3)CC2)cc1	0.7	2	/	-1.5	-21	-21	-3.8	-2.8	27
CCOC(=O)/C(C#N)=C/c1cccc(F)c1	0.65	9	i	5.2	13	-1	-1.4	3.5	2
CCn1c2c(c(=N)c3c1CCC3)CCC2	0.7	-1	i	0.4	1	4	0.1	0.5	-1
NS(=O)(=O)c1ccc(CCNC(=O)C(=O)c2cn(CC(=O)N3CCOCC3)c3ccccc23)cc1	0.68	-1	i	5.9	-1	-5	0.0	-3.8	-3
O=C(NNC1=Nc2cc([N+](=O)[O-])ccc2OC1)c1ccccc1Cl	0.69	-4	i	4.1	4	3	0.9	4.8	-2
CN(C)CCOC(=O)COc1ccc(Cl)cc1	0.68	1	i	0.4	/	/	/	-0.2	5
O=C(CCC(=O)N1CCOc2ccccc21)NCc1cccnc1	0.72	1	i	1.2	1	12	1.0	7.2	0
C/C(=N/NC(=O)CCC(=O)Nc1ccc(Br)cc1)c1ccc(Br)cc1	/	0	i	/	13	14	1.3	1.2	-3
CCN(CC)c1ccc(CNC(=O)C/C(C)=N/NC(=O)COc2ccc(C)cc2Br)cc1	/	-6	i	/	4	4	3.1	-0.5	69
Cc1occc1C(=O)NNC(=S)NCC(C)C	0.74	2	i	0.3	14	22	-5.8	-3.3	35
Cc1ccc(-c2ccc(CN3C(CC(C)C)C(=O)N(Cc4cn(CCC5OCCCO5)nn4)CCS3(=O)=O)cc2)cc1 (stereo unspecified)	/	/	i	/	1	5	-0.6	-6.3	/
Nc1ccc(C#Cc2ccc3c(=O)c4ccccc4oc3c2)cc1	0.71	0	i	-8.7	5	13	2.7	9.2	1
COc1ccc(OCCOc2ccc(/C=C3\C(=N)N4N=C(C)SC4=NC3=O)cc2)cc1	0.68	0	i	6.5	5	-2	-1.0	-10	7
O=C(NNC(=O)C1CCCN(c2ncccn2)C1)c1ccncc1 (stereo unspecified)	/	3	/	/	/	/	/	-1.5	-16
CCCCOC(=O)N1CCOCCOCCN(C(=O)OCCCC)CCOCCOCC1	0.73	-16	/	1.5	/	/	/	1.3	-2
COc1ccccc1/C=C/C(=O)NCc1ccccn1	0.73	1	i	-0.6	-16	-7	0.3	1.0	-3
O=C(NC1CC1)C1CC(=O)N(C2CCCCC2)C1 (stereo unspecified)	0.65	0	i	-1.1	6	1	0.7	-0.6	-6
Cc1ccccc1N=CC=C1OC(C)(C)C(C)(C)O1	0.73	0	i	-31	2	9	18	1.2	/
Cc1cc(=O)oc2cc(O[C@@H]3O[C@H](CO)[C@@H](O)[C@H](O)[C@H]3O)ccc12	0.66	-3	i	-0.9	12	11	3.5	0.3	-4
Cc1ccc(S(=O)(=O)/N=C(\N)Nc2nc(C)c3cc(C)c(C)cc3n2)cc1	/	23	/	/	/	/	/	1.7	15
Cc1cnc(NC(=O)CCNC(=O)c2ccccc2Cl)s1	0.66	10	i	0.8	11	3	-0.8	-2.3	-3
CCOC(=O)C1(CC2CCCCO2)CCN(C(=O)Nc2ccccc2SC)CC1 (stereo unspecified)	0.71	-1	i	0.7	-10	-8	1.9	-5.0	-10
OCC1(O)OC[C@@H](O)[C@H]1O (stereo partly specified)	0.79	2	i	-0.8	5	1	3.1	-0.4	/
CC1CN(C(=O)Nc2ccc(F)cc2)C2(CCCCCC2)O1 (stereo unspecified)	0.69	4	i	4.7	10	7	0.7	1.3	-14
CCCCC[C@H](C)N1C[C@H](COCc2ccccc2)Oc2cc(N3CCC[C@@H]3COC)ccc2S1(=O)=O	/	/	i	/	4	6	-0.7	1.3	/
CCCCOC(=O)CSc1nc2c(cc1C#N)C(=O)CC(C)(C)C2	0.75	9	/	1.2	/	/	/	2.4	1
CC(C)NC(=O)N(C)C[C@@H]1OCc2cnnn2CCCC(=O)N([C@H](C)CO)C[C@H]1C	/	/	i	/	4&3	15&8	-0.3&-0.4	4.9	/
COc1ccccc1CCN=C(N)NS(=O)(=O)c1ccc(C)c(C)c1	0.69	1	i	-0.7	-2	-12	1.4	-0.5	-10
Cn1cccc1Cc1nnc(SCC(=O)Nc2ccc3c(c2)OCO3)n1-c1ccc(F)cc1	0.75	-2	i	0.7	1	5	-0.5	-1.1	29
O=C(Nc1ccc(C(=O)N2CCCC2)cc1)c1ccccc1[N+](=O)[O-]	0.71	2	i	4.1	-10	0	-4.1	3.5	-2
NC(=O)c1cnc(Cc2c[nH]c3ccccc23)c(I)c1	/	/	i	/	-1	2	6.6	-1.8	/
Cc1cccc(C(=O)Nc2c(C(=O)N3CCN(C)CC3)cnn2-c2ccccc2)c1	0.66	7	i	-0.8	8	14	-0.2	-1.6	/
O=C(/C=C/c1ccccc1)NCCSCc1ccccc1Cl	/	1	/	3.8	/	/	/	-0.3	-16
CC(C)CC1C(=O)N(Cc2cn(CC3CCCCC3)nn2)CCS(=O)(=O)N1Cc1ccc(-c2ccc(Cl)cc2)cc1 (stereo unspecified)	/	/	i	/	16	9	1.9	2.7	/
CC(Sc1nc2ncc(Cl)cc2[nH]1)C(=O)c1c(N)n(C)c(=O)n(C)c1=O (stereo unspecified)	0.68	-10	i	0.8	-1	2	1.6	-1.4	-4
Cc1cc(-c2cccs2)c2c(N)c(C(=O)c3ccc4c(c3)OCO4)sc2n1	0.69	-26	i	-17	2	4	-11	33	1
CONC(=O)C1CCN(C(=O)OCc2ccccc2)CC1	0.74	0	/	0.4	/	/	/	-0.1	2
COc1cc(/C=N/NC(=O)COc2ccc(C)cc2)ccc1OC(=O)c1cccs1	/	5	i	/	7	0	1.8	-3.8	-4

5 entries already listed, ordered by the value under UCH37 DUB inh, highest first.
SMILES	Beta2AR agonist	FGF22 binding	UCH37 DUB inh	Ecoli rRNA inh	Ecoli rRNA inh OD600	Ecoli rRNA inh RFP	HNF4A DNA FP	ALR inh
O=C(Nc1ccc(C(=O)N2CCCC2)cc1)c1ccccc1[N+](=O)[O-]	2	i	4.1	-10	0	-4.1	3.5	-2
O=C(/C=C/c1ccccc1)NCCSCc1ccccc1Cl	1	/	3.8	/	/	/	-0.3	-16
CC(Sc1nc2ncc(Cl)cc2[nH]1)C(=O)c1c(N)n(C)c(=O)n(C)c1=O (stereo unspecified)	-10	i	0.8	-1	2	1.6	-1.4	-4
Cc1cccc(C(=O)Nc2c(C(=O)N3CCN(C)CC3)cnn2-c2ccccc2)c1	7	i	-0.8	8	14	-0.2	-1.6	/
Cc1cc(-c2cccs2)c2c(N)c(C(=O)c3ccc4c(c3)OCO4)sc2n1	-26	i	-17	2	4	-11	33	1
